HSD17B inhib: blocks hydroxysteroid 17-beta dehydrogenase activity; Q99714; recombinant HSD17B10, NADH fluorescence kinetic; many of its hits are not listed in these tables; Potency, µM (highest dose often 57.1 µM), inactives show at the highest dose activity change, negative = inhibition, actives largely listed as inhibitors; actives 7.6% (n = 75,000); active = well fitted inhibition curve with a large enough effect; inconclusive = small, poorly fitted or top-dose-only effect; inactive = no such curve, though single readings can be large or run the other way;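 also: the protocol describes HADH2 (HSD17B10) and not the HSD17B4 of the title; nearly all actives have a fitted effect of over 70% in size; most hits overshoot -100% by far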
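Activity followed as NADH fluorescence increase (ex 360, em 450 nm) every 30 seconds for 4 min, using final 90 uM beta-hydroxybutyryl CoA and 1 mM NAD+. Recombinant His-tagged enzyme, 20 nM, pH 9.0 Tris buffer, 15 min compound preincubation.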
An asterisk follows results filed as active; u = inconclusive; [ ] = dose if it differs, or a comment. % is scaled to controls: 0 for no effect and ±100 for the full control effect; potency is read from the fitted curve at half-maximal effect.

no. | SMILES | HSD17B inhib
1 | COCCn1c(C)cc(C(=O)CSc2ncn[nH]2)c1C | 1%
2 | COc1cccc(NC(=O)CSc2nnc(CNC(=O)c3ccccc3)n2C)c1 | 4%
3 | COc1ncc2ncc(=O)n(CCC#N)c2n1 | 2%
4 | CCOc1cc(C(=O)CSc2nnc(CNc3ccc(Cl)cc3)o2)ccc1NC(=O)CC | -4%
5 | CCc1cc2c(=O)c(-c3cscn3)coc2cc1OC | 14%
6 | CCOc1ccc2nc(N3CCC(C(=O)Nc4nnc(CC)s4)CC3)sc2c1 | 3%
7 | O=C1c2ccccc2-c2onc3ccc(NCCCn4ccnc4)c1c23 | -1%
8 | COc1ccc(NC(=O)CCCC(=O)OCC(F)(F)C(F)F)cc1 | 5%
9 | COCCNC(=O)CS(=O)(=O)Cc1nc(-c2ccc(C)cc2)oc1C | 5%
10 | CSC1=NCCN1C(=O)COc1ccc2ccccc2c1 | 1%
11 | CN1[C@@H]2CC[C@H]1CC(OC(c1ccccc1)c1ccccc1)C2 (stereo partly specified) | 5%[11.4 µM]
12 | C[C@]12CCC(=O)C=C1CCC1C2C(O)C[C@]2(C)C1CC[C@]2(O)C(=O)COC(=O)CCC(=O)O (stereo partly specified) | 4%
13 | O=C1Nc2ccc(S(=O)(=O)N3CCCC3)c3ccc(S(=O)(=O)N4CCCC4)c1c23 | -25%
14 | Cc1ccc2cc(C)c3nnc(SCC(=O)NCc4ccco4)n3c2c1 | -27%
15 | COc1ccc(C(=O)Nc2c(F)c(F)c(F)c(F)c2F)c(OC)c1 | -2%
16 | Cc1nnc(NC(=O)CSc2cn(CCNC(=O)c3ccccc3)c3ccccc23)s1 | -11%
17 | Cc1nnc(SCC(=O)N(C(C)C)C(C)C)nc1C | -3%
18 | CCCn1nnnc1SCC(=O)NCc1ccc2c(c1)OCO2 | -3%
19 | COC(=O)C1Cc2c([nH]c3ccccc23)CN1 (stereo unspecified) | 25µM*
20 | CC1(C)Nc2ccccc2N(CC(=O)N2CCCCC2)C1=O | 1%
21 | COc1cc(C2=NOC(C(=O)N3CCCCCC3)C2)cc(OC)c1OC (stereo unspecified) | 9%
22 | c1ccc(COc2nsnc2N2CCOCC2)cc1 | u
23 | Cc1cccc2cc(CN(CCN3CCOCC3)C(=O)Nc3ccccc3F)c(=O)[nH]c12 | -2%
24 | COC(=O)c1oc2ccc(Br)cc2c1NC(=O)CCCN1C(=O)c2ccccc2C1=O | 0%
25 | COc1cccc(Cn2nnc(C(=O)Nc3ccc(C)cc3)c2N)c1 | u
26 | O=C(NCCN1CCN(C(=O)c2cccs2)CC1)c1cccs1 | 4%
27 | COc1ccccc1-n1cnc2cc(NCc3ccco3)ccc21 | -24%
28 | O=c1c2cc3c(cc2[nH]c(=S)n1Cc1ccco1)OCO3 | -9%
29 | COc1ccc(N2C(=O)CC(N3CCC(C(N)=O)CC3)C2=O)cc1 (stereo unspecified) | -12%
30 | Cc1nc2sc(C)c(C)c2c(=O)[nH]1 | 2%
31 | CCOC(=O)c1ccc(NC(=O)CN2CCN(CCN=CC3=C(O)CC(C)(C)CC3=O)CC2)cc1 | u
32 | CCCS(=O)(=O)c1c(S(=O)(=O)CCC)c2cnccn2c1C(=O)c1ccc(F)cc1 | -11%
33 | COC(=O)C1=C(C)N(Cc2ccccc2)C2=C3C(=O)OCCC3[C@@](O)(C(=O)OC)C(=O)N2C1c1ccccc1 (stereo partly specified) | 2%[11.4 µM]
34 | COc1ccc(-c2nc(=S)c3c(n2CCN2CCOCC2)CC(C)(C)OC3)cc1 | -12%
35 | O=C(NCC1CCCO1)C1CCC(CNS(=O)(=O)c2ccccc2)CC1 (stereo unspecified) | 7%
36 | O=c1cc(-c2ccccc2)[nH]c2ccccc12 | u
37 | CCC/C=C(\CCC)C(NC(=O)c1ccc(C(=O)OC)cc1)c1ccc(C(=O)OC)cc1 (stereo unspecified) | -1%
38 | Cc1ccc(S(=O)(=O)N2C3C=CC(C3)C2C(=O)O)cc1 (stereo unspecified) | 6%
39 | CCN1CCN(Cc2nc3c(c(=O)n(C)c(=O)n3C)n2Cc2cccc3ccccc23)CC1 | -10%
40 | O=C(Cn1cc2c(n1)CCCCC2)N1CCc2ccccc21 | 5%
41 | COc1ccc(C(=O)NC(=O)Nc2cc(C)ccn2)cc1 | 5%
42 | O=C(c1cn(-c2ccccc2)nc1-c1cccnc1)N1CCCCC1 | -5%
43 | Cc1cccc(N2CCN(S(=O)(=O)c3cnc[nH]3)CC2)c1C | 10%
44 | CCn1c(SCc2nc(-c3ccccc3)no2)nc2ccccc21 | 0%
45 | CCOC(=O)Cn1c(=O)c2c(nc3n2CCCCN3c2ccc(OCC)cc2)n(C)c1=O | 7%
46 | CCOC(=O)N1CCC(NC(=O)c2cc3c(C)nc4ccccc4c3o2)CC1 | 4%
47 | C[C@@]1(C(NC(=O)Cc2ccc(C(F)(F)F)cc2)c2ccc(-c3ccccc3)cc2)C[C@H]1C1CCCCC1 (stereo partly specified) | 3%
48 | Cc1ccc(C)c(NC(=O)CCn2nc(C)cc2C)c1 | 7%
49 | O=c1c2[nH]c3ccc(F)cc3c2ncn1CCCN1CCOCC1 | u
50 | COC(=O)CC1[C@@]2(C)C[C@]34OC5(C)OC6(C7CC(=O)OC(c8ccoc8)[C@]7(C)CCC6(O5)[C@]13C)C(OC(C)=O)[C@]4(OC(C)=O)C2OC(C)=O (stereo partly specified) | 3%
51 | N=C(N)c1ccc(/C=C\c2ccc(C(=N)N)cc2)cc1 | 4µM*
52 | CCOc1ccccc1NC(=O)C1Cc2ccccc2CN1S(C)(=O)=O (stereo unspecified) | -2%
53 | COc1cc(C(=O)N(CCCO)Cc2cc3ccc(C)c(C)c3[nH]c2=O)cc(OC)c1OC | -23%
54 | CC(C)CC(=O)N=C1SC2CS(=O)(=O)CC2N1CCc1ccccc1 (stereo unspecified) | 3%
55 | COc1cccc(N2CC(O)=C(c3nc4ccccc4c(=O)[nH]3)C2=N)c1 | 25µM*
56 | Cc1ccccc1C(=O)N1CCC(C(=O)Nc2ccc(F)cc2)CC1 | 9%
57 | CCCCN(CC)C(=O)c1cccc(Cl)c1 | 3%
58 | Cc1c(O)c(=O)c2ccccc2n1C | 3.2µM*
59 | c1ccc(NC2=Nc3ccccc3CS2)cc1 | 3%
60 | CCc1ccc(NC(=O)CCNS(=O)(=O)c2cccc3nonc23)cc1 | -1%

(continued)
no. | SMILES | HSD17B inhib
61 | O=C1Nc2ccccc2OC1CC(=O)N1CCOCC1 (stereo unspecified) | 5%
62 | CCn1c(NCc2cccs2)nc2ccccc21 | 11%
63 | COCCNS(=O)(=O)c1ccc(SC)cc1 | -7%
64 | Cc1ccc(-c2c(C(=O)N3CCOCC3)oc(=O)c3ccccc23)cc1 | -1%
65 | CCOc1ccc(NCc2nnc(SCC(=O)Nc3cc(C)on3)n2-c2ccccc2OC)cc1 | 1%
66 | Cc1cc(C)nc(-n2nc(C)cc2NC(=O)CN2CCC(C)CC2)n1 | 2%
67 | O=C(/C=C/Nc1ccccc1Br)c1ccccn1 | 4%
68 | COc1ccccc1CNc1cc(-c2c(C)noc2C)ncn1 | 8%
69 | Cc1ccc(CNC(=O)C2CCN(S(=O)(=O)N3CCOCC3)CC2)cc1 | -16%
70 | COc1cc(-c2noc(-c3cccs3)n2)cc(OC)c1OC | -3%
71 | COc1ccc(-c2noc(CCC(=O)Nc3nc4ccccc4s3)n2)cc1 | 14%
72 | CCOC(=O)CNC(=O)c1cc(-c2ccc3c(c2)OCCO3)oc1C | 1%
73 | Cc1noc(C)c1COC(=O)c1cc2c3ccccc3n(C)c2s1 | 25µM*
74 | Cc1cnc(-c2nnc(N(C)C(=O)C3CCCO3)s2)cn1 (stereo unspecified) | 25µM*
75 | CCOCCCNC(=O)C(NC(=O)c1ccc(=O)[nH]c1)c1ccccc1 (stereo unspecified) | 10%
76 | Cn1c(CC(=O)Nc2ccccc2)nnc1SCC(=O)c1ccccc1 | 7%
77 | Cc1nc(-c2ccc(C(=O)O)cc2)cs1 | -9%
78 | COC(=O)c1ccc(C)c(NS(=O)(=O)c2ccc(NC(C)=O)cc2)c1 | -3%
79 | Cc1cc(C)n(-c2nnc3n2N=C(c2ccccc2)CS3)n1 | -3%
80 | N#Cc1nc(-c2ccccc2F)oc1NCCN1CCOCC1 | 32µM*
81 | COc1cccc(C2=NOC(C(=O)NC3CCCCC3)C2)c1 (stereo unspecified) | -7%
82 | COc1ccc(N2CCN(C(CNC(=O)c3ccc4c(c3)OCO4)c3cccnc3)CC2)cc1 (stereo unspecified) | 9%
83 | NC(=O)CCCC1=NS(=O)(=O)c2ccccc2N1 | 8%
84 | O=C1CC(SCCO)C(=O)N1c1ccc(Oc2ccccc2)cc1 (stereo unspecified) | -6%
85 | CCOC(=O)CNC(=O)COc1ccc(Cl)cc1Br | -2%
86 | N#Cc1cc(Cl)c(N2CCOCC2)cc1C#N | 2%
87 | COc1ccccc1CN1CC[C@@]2(CCCN(S(=O)(=O)c3ccccc3)C2)C1 | -3%
88 | CSc1nsc(SCC(=O)NC2CCCCC2)n1 | -14%
89 | CC(=O)NCCOc1nc(N(C)C)nc(N(C)C)n1 | 5%
90 | O=C(c1cc(C(F)(F)F)cc(C(F)(F)F)c1)N1CCC2(CCN(Cc3nccs3)CC2)CC1 | -5%
91 | COc1ccc(N2CCN(C(=O)COc3ccc4ccccc4c3)CC2)cc1 | 26%
92 | CCOC(=O)c1ccc(NC(=O)CN2C(=O)CSC2=O)cc1 | 4%
93 | CC1CCN(CCCn2c(=S)[nH]c3ccccc3c2=O)CC1 | -11%
94 | CCn1c(=O)c(C(=O)NCCNCCO)c(O)c2ccccc21 | -1%
95 | CCOc1ccccc1CNC(=O)C1CCCN(c2nc3ccccc3o2)C1 (stereo unspecified) | -3%
96 | O=C(NCCCN1CCOCC1)c1ccccc1-c1ccccc1 | 5%
97 | Cc1csc(C(C#N)C(=O)c2cc3ccccc3o2)n1 (stereo unspecified) | -15%
98 | O=C(OCc1nnc(-c2ccccc2)o1)c1cc(=O)c2ccccc2o1 | -9%
99 | O=C(O)c1ccc(F)c(S(=O)(=O)Nc2ccccc2Cl)c1 | -4%
100 | CC(CN1CCOCC1)OC(=O)c1ccc2c(c1)OCCO2 (stereo unspecified) | 11%

Rewritten field by field: part of the list above.
[88] CSc1nsc(SCC(=O)NC2CCCCC2)n1
  HSD17B inhib: -14%
[89] CC(=O)NCCOc1nc(N(C)C)nc(N(C)C)n1
  HSD17B inhib: 5%
[90] O=C(c1cc(C(F)(F)F)cc(C(F)(F)F)c1)N1CCC2(CCN(Cc3nccs3)CC2)CC1
  HSD17B inhib: -5%

Quoted at random: 4 records from the list
no. | SMILES | HSD17B inhib
85 | CCOC(=O)CNC(=O)COc1ccc(Cl)cc1Br | -2%
95 | CCOc1ccccc1CNC(=O)C1CCCN(c2nc3ccccc3o2)C1 (stereo unspecified) | -3%
98 | O=C(OCc1nnc(-c2ccccc2)o1)c1cc(=O)c2ccccc2o1 | -9%
100 | CC(CN1CCOCC1)OC(=O)c1ccc2c(c1)OCCO2 (stereo unspecified) | 11%

Carrying on:
no. | SMILES | HSD17B inhib
101 | O=C(CN1CCN(Cc2ccccc2Cl)C1=O)NC1CCCCCC1 | 1%
102 | Cc1cccc(CNc2cc(-c3ccccc3Cl)ncn2)c1 | -4%
103 | Cc1ccc(OCC(O)Cn2c(=N)n(CCN3CCCCC3)c3ccccc32)cc1 (stereo unspecified) | 9%
104 | Cc1cc(N2C(=O)CC(Cc3ccccc3)C2=O)no1 (stereo unspecified) | 5%
105 | COC(=O)[C@@]1(Cc2ccc(F)cc2)[C@H]2c3cc(C(=O)N(C)C)n(Cc4ccc(S(C)(=O)=O)cc4)c3C[C@H]2CN1C(=O)c1ccccc1 | u
106 | CCCOC(=O)CCCCC1SCC(NC(=O)OC)C1NC(=O)OC (stereo unspecified) | -6%
107 | O=C(CNCCC1=CCCCC1)Nc1ccccc1N1CCCCC1 | -8%
108 | CCCn1c(SCCc2ccccc2)nc2c1c(=O)[nH]c(=O)n2C | 4%
109 | Cc1cc(C)n(C(=O)c2ccc(S(=O)(=O)N3CCCC3)cc2)n1 | 3%
110 | CCCNC(=O)c1noc2c1CCc1ccccc1-2 | 2%
111 | Cc1ccc(OCCN2C(=O)OC(C)(C)C2(C)O)cc1 (stereo unspecified) | 4%
112 | N#Cc1c(-c2ccco2)nc(NCC2CCCO2)[nH]c1=O (stereo unspecified) | -4%
113 | CCc1ccc2oc(-c3cc(N=Cc4cccc(OC)c4O)ccc3O)nc2c1 | -5%
114 | Cc1noc(/C=C/c2ccco2)c1S(=O)(=O)N1CCC(C(=O)N2c3ccccc3CC2C)CC1 (stereo unspecified) | -18%
115 | CCN1CCN(C(=O)c2sc3nc(C)nc(N4CCC(C)CC4)c3c2C)CC1 | -7%
116 | O=S1(=O)N=C(Nc2ccc(S(=O)(=O)N3CCCCC3)cc2)c2ccccc21 | u
117 | Cc1cccn2c(=O)c3cc(C(=O)N4c5ccccc5CC4C)n(C)c3nc12 (stereo unspecified) | 12%
118 | COc1cccc(C(C(=O)NC(C)(C)C)N(C(=O)CCC(=O)Nc2cc(C)on2)C2CC2)c1OC (stereo unspecified) | 11%
119 | NC(N)=NC(N)=NCCc1ccccc1 | 1%
120 | CCn1c(COc2cccc(C)c2)nnc1SCC(=O)CC(=O)Nc1ccccc1OC | -16%
121 | Cn1c(SCC(=O)Nc2ccccc2)nc(O)cc1=O | 1%
122 | Cc1nc2scc(-c3ccco3)c2c(=O)n1/N=C/N(C)C | -20%
123 | COc1ccc(CNc2ncncc2-c2ccccc2CN(C)C)c(OC)c1 | 1%
124 | Nc1c(C(=O)c2ccc(Br)s2)oc2ccccc12 | 0%

These rows are one share of the data; the hit share may differ from the screen's.
